Source: PubChem BioAssay (National Center for Advancing Translational Sciences (NCATS))
NS1 inh: influenza NS1 inhibition. S. cerevisiae slowed by influenza A NS1, growth recovery by OD600. Potency, µM (top dose mostly 46.1 µM), for inactives: at the highest dose activity, positive = more growth. hit rate 0.4% among 270,000. AID 2326; also: actives are rising curves; nearly all actives have a fitted effect of over 50% in size
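Recovery from NS1-induced slow growth read by OD600 in budding yeast switched to galactose assay medium (pH 6.0, -URA) at 1:100 dilution. Compound 23 nl per well; the matching strain lacking NS1 serves as control.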
Cruzain inh Det: cruzain (T. cruzi) inhibition with detergent. hit rate 0.43% among 200,000. purified cruzain, Z-FR-AMC fluorescence, 0.01% Triton. Potency, µM, for the others: max response, negative = inhibition, usual class: inhibitors; active = well fitted curve in the direction sought with a large enough effect; inconclusive = small, poorly fitted or top-dose-only effect, or another doubt; inactive = no such curve, though single readings can be large; an effect the other way counts as inactive or inconclusive;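 also: plate controls were neutral wells for no effect and buffer without enzyme for full effect; nearly all actives have a fitted effect of over 40% in size; top concentration of the series not given in the record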
Target sequence (P25779 123-467 limits assumed): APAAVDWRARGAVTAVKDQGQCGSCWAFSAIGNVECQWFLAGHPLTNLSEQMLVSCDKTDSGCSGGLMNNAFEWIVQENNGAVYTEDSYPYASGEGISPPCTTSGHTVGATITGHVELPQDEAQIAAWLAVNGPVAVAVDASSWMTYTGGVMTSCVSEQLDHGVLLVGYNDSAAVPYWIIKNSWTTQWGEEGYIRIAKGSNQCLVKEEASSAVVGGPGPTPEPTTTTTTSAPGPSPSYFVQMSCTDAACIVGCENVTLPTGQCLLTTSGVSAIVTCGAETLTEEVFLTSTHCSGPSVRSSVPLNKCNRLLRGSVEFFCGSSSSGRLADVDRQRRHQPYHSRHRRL
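Detergent-containing run (0.01% Triton X-100) in acetate buffer pH 5.5 with 5 mM DTT: enzyme at 1.5 nM final, 15 min compound preincubation at room temperature, then 2 uM Z-FR-AMC substrate. Activity taken as 60 s fluorescence increase at 360/450 nm.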
Cruzain noTriton: inhibitors of Trypanosoma cruzi cruzain without detergent; AID 1476; P25779; Potency, µM, inactives show max response, negative = inhibition, hits mostly inhibitors; hit rate 2.3% among 200,000; purified cruzain, Z-FR-AMC fluorescence, no detergent; active = well fitted curve in the direction sought with a large enough effect; inconclusive = small, poorly fitted or top-dose-only effect, or another doubt; inactive = no such curve, though single readings can be large; an effect the other way counts as inactive or inconclusive;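 also: plate controls were enzyme without inhibitor for no effect and buffer without enzyme for full effect; nearly all actives have a fitted effect of over 40% in size; top concentration of the series not given in the record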
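Detergent-free condition (0.00005% Triton X-100) in acetate buffer pH 5.5 with DTT. 1.5 nM enzyme and compound were pre-mixed 15 min, then 2 uM Z-FR-AMC substrate added; reaction progress from fluorescence change between first and third reads (60 s).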
Lassa entry inh: inhibitors of Lassa virus binding or cell entry; Lassa virus pseudotype entry inhibition, cell reporter; control for the full effect not named in the record; Potency, µM (series often up to 37.9 µM), without a hit: at the top dose activity change, negative = inhibition, usual class: inhibitors; hit rate 1.2% among 300,000; active means well fitted inhibition curve with a large enough effect; inconclusive means small, poorly fitted or top-dose-only effect, or effect the other way; inactive means flat fitted curve, though single readings scatter; tested in HEK293 cells; also: % is scaled to controls: 0 for no effect and ±100 for the full control effect; nearly all actives have a fitted effect of over 50% in size; luciferase read-out
StopGo reporter: lowers the luciferase signal of an FMDV 2A StopGo reporter; human cells with a luciferase reporter of 2A StopGo recoding; control for the full effect not named in the record; Potency, µM (top dose mostly 57.9 µM), inactives show at the highest dose signal change, negative = less light; AID 1159524; hit rate 1.2% among 410,000; active = well fitted falling curve with a large enough effect; inconclusive = small, poorly fitted or top-dose-only effect; inactive = no such curve, though single readings can be large or run the other way; tested in HEK293T cells; also: % is scaled to controls: 0 for no effect and ±100 for the full control effect; nearly all actives have a fitted effect of over 45% in size; luciferase light after 4 h
SARS PLpro yeast: inhibitors of SARS-CoV papain-like protease in yeast | S. cerevisiae expressing SARS-CoV PLpro, growth rescue; control for the full effect not named in the record | Potency, µM (top dose mostly 32.9 µM), for the others: at the top dose activity, positive = growth rescue | hit rate 0.19% among 330,000; also: 0% is about no effect; nearly all actives have a fitted effect of over 55% in size; growth read by luminescence after 48 h
Marburg entry inh: inhibitors of Marburg virus binding or cell entry. Marburg virus pseudotyped entry inhibition, cell reporter; control for the full effect not named in the record; about a third of the inactives were read at about 46 µM. Potency, µM (series often up to 37.8 µM), for inactives: at the top dose activity change, negative = inhibition, most hits filed as inhibitors. hit rate 1.8% among 300,000; active = well fitted inhibition curve with a large enough effect; inconclusive = small, poorly fitted or top-dose-only effect, or effect the other way; inactive = flat fitted curve, though single readings scatter; tested in HEK293 cells; about a fifth of its hits are not listed in these tables; also: % is scaled to controls: 0 for no effect and ±100 for the full control effect; luciferase read-out
RE007 growth inh: less growth of the S. pombe RE007 Vpr strain; S. pombe RE007 Vpr strain, BacTiter-Glo ATP luminescence, 24 h; control for the full effect not named in the record; Potency, µM (top dose mostly 92.2 µM), for the others: at the highest dose activity change, negative = less growth; hit rate 0.21% among 360,000; active = well fitted falling curve with a large enough effect; inconclusive = small, poorly fitted or top-dose-only effect; inactive = no such curve, though single readings can be large or run the other way;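 also: % is scaled to controls: 0 for no effect and ±100 for the full control effect; nearly all actives have a fitted effect of over 50% in size; the assay follows cell death caused by Vpr and the record does not say whether a fall means rescue or toxicity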
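Fission yeast strain RE007, carrying one chromosomally integrated HIV-1 vpr copy, was seeded at OD 0.01 in PMG+AL medium with 23 nL pinned compound. After 24 h at 30 °C and 99% humidity, viability was read by BacTiter-Glo luminescence.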
The depositor's hits bear a star; ? = inconclusive; · = not tested or not shown; & = joins results of further samples; [ ] = remark or other dose. Unless noted, calls follow the shape of the dose curve; as a rule, active means well fitted rising curve with a large enough effect; inconclusive means small, poorly fitted or top-dose-only effect; inactive means no such curve, though single readings can be large or run the other way. Potency is read from the fitted curve at half-maximal effect. Random draw from the library (roughly 4.7% active in at least one column).

SMILES,NS1 inh,Cruzain inh Det,Cruzain noTriton,Lassa entry inh,StopGo reporter,SARS PLpro yeast,Marburg entry inh,RE007 growth inh
Cc1ccc(C)c(S(=O)(=O)N2CCCC2CNC(=O)C(=O)NCc2ccccn2)c1 (stereo unspecified),·,·,·,-26%,-5%,5%,4%[46.1 µM],-4%
O=C(CN1C(=O)S/C(=C/c2cccs2)C1=O)N1CCCC1,·,·,·,16%,-4%,-3%,-1%,10%
Cc1c(NC(=O)Nc2ccc([N+](=O)[O-])cc2)c(=O)n(-c2ccccc2)n1C,0%,·,·,3%[46.1 µM],-12%,2%,15%[46.1 µM],-7%
O=C(NCc1ccco1)c1nc2nc(-c3cccs3)cc(C(F)(F)F)n2n1,6%,?,10%,17%,-1%,0%,?,-2%
O=[N+]([O-])c1ccc(CNc2cccc(F)c2)s1,3%,·,·,-18%,-26%,-5%,1%,-4%
Cc1ccc(NC(=O)Cn2c(=O)n(Cc3ccco3)c(=N)c3c4c(sc32)COC(C)(C)C4)cc1,-48%,3.9%,-2%,5%,-5%,-1%,2%&2%,-2%
COc1ccc(Cn2c(=O)oc3ccc(C)cc32)cc1OC,-15%,-5.3%,2%,?,?,-3%,?,21%
Cc1ccc(S(=O)(=O)NC2CCCCC2)cc1,·,1.6%,3%,·,41%[activator],-4%,·,1%
CCOC(=O)CN1C(=O)C(Sc2n[nH]c(-c3ccccc3)n2)CCc2ccccc21 (stereo unspecified),-8%,-3.0%,4%,?,·,3%,?,5%
Cc1ccc(C)c(NC2=CC(=O)CC(C)(C)C2)c1C#N,?,-2.4%,0%,2%,-25%,4%,6%,-2%
COC(=O)Cn1c(=O)c2c(n(Cc3ccccc3)c1=O)N/C(=C/c1ccc(Br)cc1)C2=O,-2%,·,·,·,-18%,6%,·,11%
O=C(Nc1cccc(Cl)c1)Nc1nc(-c2ccc(Cl)cc2)cs1,-12%,1.4%,10µM*,-12%,-17%,-1%,?,-6%
COC(=O)C1=NN(c2cccc3ccccc23)C2C(=O)N(c3ccccc3OC)C(=O)C12 (stereo unspecified),8%,·,·,2%,-13%,12%,-11%,6%
CN(C)C(=O)c1ccc(S(=O)(=O)NCc2ccccc2Cl)s1,·,-1.1%,-3%,19%[46.1 µM],-1%,·,·,·
Cc1ccc(CNS(=O)(=O)c2ccc(F)c(C(=O)Nc3ccc(C)c(F)c3)c2)cc1,·,-6.5%,4%,?,-10%,·,·,·
CC(=O)c1ccc(NC(=O)CC2Nc3cccc4cccc(c34)NC2=O)cc1 (stereo unspecified),11%,-12%,-7%,-18%[46.1 µM],-23%&-25%,0%,-12%&-12%[46.1 µM],-6%
Cc1ccc(C(=O)NC(=O)OCCn2c(C)cnc2[N+](=O)[O-])cc1,·,·,·,-2%,-2%,4%,15%[46.1 µM],3%
CN1CCN(S(=O)(=O)c2cc(C(F)(F)F)ccc2Cl)CC1,6%,·,·,19%,-12%,5%,21%,-13%
Cc1cccc(-n2cc[nH]c2=S)c1,12%,-2.0%,0%,-4%,0%,15%,26%,19%
COc1ccccc1NC(=O)c1[nH]c(C)c(C(C)=O)c1C,-12%,1.1%,-2%,15%,-20%,-12%,?,-5%
Cc1cc(C(=O)COc2cc(F)ccc2[N+](=O)[O-])c(C)n1C1CC1,·,·,·,4%[46.1 µM],-6%,-2%,12%[46.1 µM],-3%
CC1(C)CC(n2c(NCCO)nc3c(c2=O)C2(CCCC2)Cc2ccccc2-3)CCO1 (stereo unspecified),-35%,-16%,?,?,·,4%,?,-4%
CNS(=O)(=O)c1cc(O)c2c(S(=O)(=O)NC)cccc2c1,5%,1.2%,3%,-6%,54%[activator],7%,-1%,-3%
COc1ccc(NC(=O)CNC(=O)C2CCCCC2)cc1,-15%,·,·,·,0%,-3%,·,-3%
CCCC(=O)NC(c1ccccc1Cl)c1ccc2cccnc2c1O (stereo unspecified),-82%,·,·,?,-6%,2.2µM*,0.89µM*,-8%
CC(C)c1ccc(OCC(=O)Nc2ccc(OC(F)(F)F)cc2)cc1,4%,-2.8%,-11%,1%,0%,-9%,21%,-4%
CCc1nnc(NS(=O)(=O)c2ccc(NC(=S)NC(=O)c3cccs3)cc2)s1,5%,·,·,7%,15%,0%,0%[46.1 µM],4%
Cc1occc1-c1nnc(SCC(=O)N2CCN(c3ccccc3F)CC2)n1C,0%,1.7%,-3%,-24%,·,15%,-24%,·
Cc1n[nH]c(C)c1CCCCOc1ccc([N+](=O)[O-])cc1,-10%,·,·,·,-22%,-1%,·,14%
CC1=C(C(=O)OC2CCCC2)C(c2coc3ccccc3c2=O)C2=C(CC(C)(C)CC2=O)N1 (stereo unspecified),9%,·,·,·,-8%,-2%,·,5%
Cc1ccc(C)c(OCc2cc(C(=O)N3CC[C@@H]4CCCC[C@H]4C3)no2)c1,-1%,·,·,0%,62%[activator],-2%,?,-6%
O=C1C(Cl)=C(N2CCCCCC2)C(=O)N1c1ccccc1,-70%,-3.6%,-8%,-1%,-11%,-7%,-4%,?
C=Cn1cc[n+](CC(=O)c2cc(C(C)(C)C)c(O)c(C(C)(C)C)c2)c1,-7%,·,·,·,-16%,7%,·,2%
CC(=O)c1c(C)[nH]c(C(=O)NCc2ccccc2)c1C,-3%,0.2%,-9%,-8%,39%[activator],1%,0%,-22%
CCOC(=O)c1ccccc1NC(=O)Cn1c(=O)n(CCC(=O)N2CCc3ccccc3C2)c(=O)c2ccccc21,·,-4.2%,-10%,?,-11%,·,?,·
COc1ccccc1/C=C/C(=O)NC(=S)NCC1CCCO1 (stereo unspecified),·,·,·,?,-24%,-1%,4%[46.1 µM],3%
COc1ccc(S(=O)(=O)Nc2ccc3c(c2)n(C)c(=O)n3C)cc1OC,4%,·,·,?,18%,1%,-5%[46.1 µM],58%
Cc1csc(NC(=O)c2ccc[nH]c2=O)n1,12%,·,·,·,72%[activator],-5%,·,-14%
CC1(C)Nc2ccccc2N(Cc2ccc([N+](=O)[O-])cc2)C1=O,·,·,·,-6%,-25%,-4%,-27%[46.1 µM],6%
CCOC(=O)C1=C(Nc2ccccc2)CC(C)(O)C(C(=O)OCC)C1c1ccc(Br)cc1 (stereo unspecified),-17%,-7.3%,11%,-1%,?,-19%,?,-22%
CN1CCN(c2nc3c(c(=O)n(C)c(=O)n3C)n2Cc2ccc(Cl)cc2)CC1,-10%,·,·,·,-12%,1%,·,5%
COC(=O)c1cc(Br)ccc1NC(=O)Nc1ccc(C)cc1,·,·,·,8%,12%,·,6%,-8%
Cc1nc(-c2ccc(Br)cc2)ccc1C(=O)O,-23%,0.2%,-2%,0%,-2%,-10%,?,-17%
Cc1[nH]c2ccccc2c1C(c1ccncc1)N1CCN(c2ccccc2F)CC1 (stereo unspecified),7%,-1.9%,10%,0%,?,-2%,0%,7%
CC(C)NS(=O)(=O)c1cccc2nsnc12,3%,-4.7%,-3%,10%,0%,4%,20%,-1%
CCCc1nnc(SCC(=O)Nc2nccs2)o1,2%,·,·,?,2%,·,3%[46.1 µM],-21%
Cc1cc(C)n(C(=O)CCC(=O)Nc2ccc(C)c(C)c2)n1,22%,4.3%,11%,-18%,-2%,12%,-2%,2%
Cc1cc(C)n(CC(=O)Nc2ccc(N3CCOCC3)c(Cl)c2)c(=O)c1C#N,9%,·,·,12%[46.1 µM],-18%,1%,2%[46.1 µM],-12%
COc1cccc(CNc2ncc(Br)cc2Br)c1O,-12%,-2.6%,0%,7%,14%,1%,?,?
COc1cc(/C=N/O)cc(Br)c1OCC(=O)NCc1ccccc1,-8%,-11%,-23%,-30%,11%,-46%,?,20%
Cc1ccc(C(=O)N2CCN(Cc3ccc4c(c3)OCO4)CC2)cc1S(=O)(=O)N1CCOCC1,6%,·,·,·,?,0%,·,-5%
COc1ccc2c3c([nH]c2c1)C1(NCC3)C(=O)Nc2ccccc21 (stereo unspecified),-1%,·,·,8%,-1%,-2%,18%[46.1 µM],-20%
CCCC(=O)NCCc1nc2ccccc2n1Cc1c(F)cccc1Cl,·,?,0%,-2%[46.1 µM],?,·,-25%[46.1 µM],·
COc1ccc(S(=O)(=O)N2CCCOC2CNC(=O)C(=O)NCCc2ccco2)cc1OC (stereo unspecified),8%,·,·,-22%,-9%,2%,19%,0%
Cc1cc(C(=O)OCC(=O)Nc2ccc(F)cc2[N+](=O)[O-])c2ccccc2n1,-1%,-1.8%,20µM*,0%[46.1 µM],-6%,14%,2%[46.1 µM],-4%
CC1=Nc2cc(Cl)ccc2Oc2ccccc21,4%,·,·,-6%,-3%,-2%,2%[46.1 µM],-14%
CN(Cc1ccccc1)C(=O)COC(=O)c1ccccc1NS(=O)(=O)c1cccc(N)c1,22µM*,-5.3%,-15%,-7%,13%,-2%,-6%,6%
CN(Cc1ccccc1)C(=O)COC(=O)c1ccc(S(=O)(=O)N(C)C)cc1,·,·,·,-1%,-10%,1%,-16%[46.1 µM],1%
C=C(C(=O)c1ccccc1)C(c1ccccc1)C(C)C(=O)c1ccccc1 (stereo unspecified),-1%,-5.1%,-9%,?,?,-3%,?,16%
O=C(c1ccc2nc3ccccc3c(=O)n2c1)N1CCN(Cc2ccc3c(c2)OCO3)CC1,-5%,-7.8%,-2%,-7%,?,0%,9%,7%

New compounds follow:
SMILES,NS1 inh,Cruzain inh Det,Cruzain noTriton,Lassa entry inh,StopGo reporter,SARS PLpro yeast,Marburg entry inh,RE007 growth inh
CC(C)(C)OC(=O)N1Cc2ccccc2C[C@H]1C(=O)NCC(=O)Nc1ccc2c(c1)OCCO2,3%,·,·,·,?,9%,·,5%
Cc1nn(C)c(C)c1C(C)NC(=O)c1cc(COc2cncc(Cl)c2)on1 (stereo unspecified),-3%,·,·,·,-11%,?,·,0%
O=C(N/N=C/c1c[nH]c2ccccc12)c1cc(Br)ccc1O,-45%,·,·,·,42%[activator],-6%,·,-10%
Cc1cc(=O)oc2cc(OCC(=O)OCC(=O)N3CCC(C)CC3)ccc12,·,·,·,6%,-10%,0%,5%[46.1 µM],12%
